High-throughput results deposited in PubChem by several laboratories.
T cruzi repl = blocks replication of Trypanosoma cruzi; inhibition, % (test concentration not listed); 300,000 tested, 1.4% active; T. cruzi beta-gal in NIH3T3, luminescence, 90 h; AID 1885;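 active means mean inhibition across valid replicates above about 55%, limit read from the data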;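 further: signal also drops with host cell toxicity which is not excluded here; 0% = plate median of DMSO wells and 100% = zero luminescence signal; higher percent means less beta-gal luminescence so fewer parasites; stock transfer was 50 nL into about 50 µL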
ALR H2O2 inh = blocks human ALR sulfhydryl oxidase activity; inhibition, % (test concentration not listed); purified ALR, DTT oxidation, H2O2 HRP-luminol luminescence; P55789; 290,000 tested, 3.8% active;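 active means mean and each replicate at 75% or more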;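 further: stock transfer was 7.5 nL into about 7.5 µL; 0% = neutral wells and 100% = wells with inactivated enzyme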
Target sequence (P55789 whole entry, looked up): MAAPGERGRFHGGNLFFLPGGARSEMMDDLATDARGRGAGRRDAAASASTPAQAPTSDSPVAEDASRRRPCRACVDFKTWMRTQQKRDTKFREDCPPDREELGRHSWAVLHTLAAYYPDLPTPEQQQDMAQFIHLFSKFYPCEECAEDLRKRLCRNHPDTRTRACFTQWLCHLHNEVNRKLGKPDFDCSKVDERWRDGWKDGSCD
Bfl-1 A1 inh = inhibitors of the anti-apoptotic protein A1, read as caspase activation. 330,000 tested, 0.066% active. MEF A1-2A-BIM cells, Caspase-Glo 3/7 luminescence, 3 h; percent of clofoctol response, vehicle zero. caspase activation, % (test concentration not listed);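 active means over half of replicate activation scores above 10%, or exactly half above 10 with the replicate mean above 10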;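 further: wells of about 30 µL received 50 nL stock; many hits fall short of the cut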
LANA-H2A inh = blocks KSHV LANA binding to histone H2A/H2B; cell-free LANA-H2A/H2B peptide, fluorescence polarization; inhibition, % (test concentration not listed); 320,000 tested, 0.6% active; in the data active means inhibition mostly above about 10%, no sharp cut-off; inactive means mostly below about 6.7%;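 further: stock transfer was 7.5 nL into about 10 µL; 0% = median of vehicle wells and 100% = median of positive control wells; one replicate is shown; the record names a cut of 25% in any replicate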
Beta2AR agonist = human beta-2 adrenergic receptor agonism by FAP; 340,000 tested, 0.43% active; P07550; response, % (no concentration beside the values); Am2.2-beta2AR cells, FAP receptor internalization, flow cytometry; reference of the scale not given here;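 active means response above a set limit, near 3 SD of response in nonfluorescent compounds, cut at about 42% in these data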;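 further: stock transfer was 100 nL into about 11 µL; a reference agonist was the positive control; negative values mostly stem from fluorescent compounds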
Ecoli rRNA inh = inhibitors of bacterial rRNA selective over humanized ribosomes. AID 720706. E. coli WT GFP vs humanized-ribosome RFP mutants, fluorescence, 24 h; stronger effect = lower value; DMSO median 0, no signal -100. 350,000 tested, 1.6% active. GFP signal change (wild-type ribosome), % (no concentration beside the values);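 active means significant combined selectivity score with lowered wild-type GFP, culture density cut under 30%, mutant RFP and density less affected; inactive means any of these conditions unmet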; further: one replicate is shown; some compounds called inactive have numbers as strong as hits
Calb FLC = affects C. albicans growth with fluconazole; C. albicans CaCi-2 (fluconazole-resistant clinical isolate) + fluconazole, Alamar Blue growth, 48 h; growth inhibition, % (concentration not given with the values); 300,000 tested, 0.57% active; AID 1979;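 active means most replicates above 75%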;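 further: all wells also contain fluconazole at 8 µg/ml as a sub-toxic cotreatment; 0% = median of DMSO wells and 100% = median of geldanamycin control wells; wells of about 8 µL received 7.5 nL stock; the first replicate is given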
Beta cell apopt = blocks beta cell apoptosis. INS-1E cytokine-induced death, ATP luminescence, 48 h; percent of positive-control rescue, neutral wells zero. protection from apoptosis, % (concentration not given with the values). 300,000 tested, 0.8% active;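 active means all replicates at 75% or more, or half of them and the mean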;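 further: 0% = cytokine-treated negative control wells and 100% = positive control rescue; higher means more ATP so stronger rescue from cytokine killing; wells of about 40 µL received 100 nL stock; the first replicate is given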
Ecoli rRNA inh OD600 = recorded beside Ecoli rRNA inh, whose call it bears; OD600 change, %; measured here: OD600 growth;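 optical density of the mix in the first replicate; 0 = DMSO median and -100 = no signal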
Ecoli rRNA inh RFP = further read-out of Ecoli rRNA inh, marked with its call; RFP signal change, %; measured here: RFP humanized mutant strains;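 first replicate; 0 = DMSO median and -100 = no signal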
* hit, by the source's call; · = not tested or not shown. The list is partial; the hit share may differ from the screen's.

Field names: A = T cruzi repl; B = ALR H2O2 inh; C = Bfl-1 A1 inh; D = LANA-H2A inh; E = Beta2AR agonist; F = Ecoli rRNA inh; G = Ecoli rRNA inh OD600; H = Ecoli rRNA inh RFP; I = Calb FLC; J = Beta cell apopt
> COc1ccc(C(=O)NC(C)c2ccc(-n3ccnc3)cc2)c(OC)c1OC (stereo not drawn)
  A = -14; B = 2; C = 1.3; D = 1.8; E = -1; F = 5; G = 4; H = -0.5; I = 25; J = -1

> CCN1CCCC1CNC(=O)C(NC(=O)C1CCC(C)CC1)C(C)C (stereo not drawn)
  A = -17; B = -1; C = 1.3; D = -7.2; E = 0; F = ·; G = ·; H = ·; I = 14; J = -1

> Cc1ccc(C(C)(C)NC(=O)C2CCC(=O)N(CCCN3CCOCC3)C2)cc1 (stereo not drawn)
  A = -2; B = -11; C = -0.6; D = 3.0; E = -2; F = 2; G = 0; H = 1.0; I = -2; J = -5

> CC(SCC(=O)NC(C)C1CC2CCC1C2)C(=O)O (stereo not drawn)
  A = -23; B = -7; C = 0.4; D = 2.5; E = 1; F = ·; G = ·; H = ·; I = 8; J = -5

> CCCNC(=O)c1cc2nc(-c3ccccc3)cc(C(F)(F)F)n2n1
  A = 17; B = 5; C = 0.2; D = 0.5; E = -24; F = ·; G = ·; H = ·; I = 15; J = -2

> CC(C)CN=CC1=C(O)c2ccccc2C1=O
  A = -4; B = 12; C = -5.0; D = -1.0; E = 0; F = -4; G = -5; H = -1.0; I = -4; J = 2

> Cc1nc(SCC(=O)NCC2CCCO2)c2c3c(sc2n1)CCC3 (stereo not drawn)
  A = 7; B = -8; C = 0.6; D = -5.1; E = -11; F = -2; G = -5; H = 5.8; I = 7; J = 5

> C[C@]12CCC3C(CC[C@H]4CC(O)CC[C@]34C)C1CC/C2=N/O (stereo partly drawn)
  A = 3; B = 0; C = 0.9; D = 6.8; E = -6; F = -23; G = -34; H = -6.6; I = -3; J = -6

An excerpt from above in order of their number in Ecoli rRNA inh OD600, descending.
molecule | ALR H2O2 inh | LANA-H2A inh | Beta2AR agonist | Ecoli rRNA inh | Ecoli rRNA inh OD600 | Ecoli rRNA inh RFP
COc1ccc(C(=O)NC(C)c2ccc(-n3ccnc3)cc2)c(OC)c1OC (stereo not drawn) | 2 | 1.8 | -1 | 5 | 4 | -0.5
Cc1ccc(C(C)(C)NC(=O)C2CCC(=O)N(CCCN3CCOCC3)C2)cc1 (stereo not drawn) | -11 | 3.0 | -2 | 2 | 0 | 1.0
CC(C)CN=CC1=C(O)c2ccccc2C1=O | 12 | -1.0 | 0 | -4 | -5 | -1.0

3 compounds from above, ordered by formula weight, low to high:
Field names: A = T cruzi repl; B = ALR H2O2 inh; C = Bfl-1 A1 inh; D = LANA-H2A inh; E = Beta2AR agonist; F = Ecoli rRNA inh; G = Ecoli rRNA inh OD600; H = Ecoli rRNA inh RFP; I = Calb FLC; J = Beta cell apopt
> CC(SCC(=O)NC(C)C1CC2CCC1C2)C(=O)O (stereo not drawn)
  A = -23; B = -7; C = 0.4; D = 2.5; E = 1; F = ·; G = ·; H = ·; I = 8; J = -5

> Cc1nc(SCC(=O)NCC2CCCO2)c2c3c(sc2n1)CCC3 (stereo not drawn)
  A = 7; B = -8; C = 0.6; D = -5.1; E = -11; F = -2; G = -5; H = 5.8; I = 7; J = 5

> COc1ccc(C(=O)NC(C)c2ccc(-n3ccnc3)cc2)c(OC)c1OC (stereo not drawn)
  A = -14; B = 2; C = 1.3; D = 1.8; E = -1; F = 5; G = 4; H = -0.5; I = 25; J = -1

Single values from the results shown:
In ALR H2O2 inh, `Cc1ccc(C(C)(C)NC(=O)C2CCC(=O)N(CCCN3CCOCC3)C2)cc1` (stereo not drawn) is entered as -11
In T cruzi repl, `C[C@]12CCC3C(CC[C@H]4CC(O)CC[C@]34C)C1CC/C2=N/O` (stereo partly drawn) is entered as 3
